GALR2 ag = GALR2 (human) receptor agonism. O43603. GALR2-expressing cells, agonist activation read-out. activation, %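 (tested at 5 µM)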. 0.48% of 140,000 active;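 active = above mean plus 3 SD of all compounds, about 5% in these data, not always enough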;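 note: 0% = vehicle buffer wells and 100% = reference agonist at full effect; tested in CHO reporter cells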
Target sequence (O43603 whole entry, looked up): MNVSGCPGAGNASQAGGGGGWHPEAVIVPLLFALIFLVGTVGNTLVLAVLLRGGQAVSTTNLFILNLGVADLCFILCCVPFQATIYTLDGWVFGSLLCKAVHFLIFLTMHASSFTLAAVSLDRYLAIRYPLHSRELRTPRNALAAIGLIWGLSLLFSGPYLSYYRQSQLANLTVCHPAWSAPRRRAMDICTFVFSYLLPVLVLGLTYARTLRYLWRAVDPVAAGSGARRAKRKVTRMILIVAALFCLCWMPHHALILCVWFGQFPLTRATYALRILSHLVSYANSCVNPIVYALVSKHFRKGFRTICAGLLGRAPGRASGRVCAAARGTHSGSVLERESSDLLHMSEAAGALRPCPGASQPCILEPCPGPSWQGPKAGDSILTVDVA
PKD1 kinase inh = blocks activity of human protein kinase D1; inhibition, %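 (about 10 µM by stock and volumes)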; 0.056% of 200,000 active; PKD1 kinase fluorescence polarization assay; Q15139;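 active = inhibition of 50% or more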;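 note: controls were vehicle for no effect and a reference inhibitor for full effect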
INS promoter inh = TRM-6 insulin promoter activity inhibition; TRM-6 cells (human fetal islet line), insulin promoter-eGFP reporter, imaging; reporter expression induced with tamoxifen; inhibition, % at 2 µM; 0.9% of 130,000 active; AID 1273;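 active = inhibition above the mean plus 3 SD, with well images judged a real hit on visual review, cut at about 60% in these data, passing the limit was not always enough; inconclusive = inhibition over the cutoff but images rejected on review; inactive = inhibition not above the cutoff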
HSV replic up = increases HSV replication in cells; 0.005% of 220,000 active; HSV replication augmentation in cells, fold increase; AID 1956; maximum fold increase;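 active = peak rise of 1.5-fold or more in the series; inconclusive = self-fluorescent or not available for retest; tested in PC3 cells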;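 note: first round at 10 µM; read as green reporter fluorescence; hits show the peak of a series up to 25 µM; 1 = signal of infected wells without compound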
RGS16-Gao HTS = modulates binding between human RGS16 and Galphao; O15492+P09471; bead-based flow cytometry RGS16-Galphao binding, fluorescence; actives lie on both sides; binding response (% of control), % at 10 µM; 0.38% of 220,000 active; AID 1441;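 active = below 25% or above 175%, edge rows of some plates excepted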;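 note: Galphao activated by GDP with aluminum fluoride before binding; 100% = wells without compound and 0% = beads without RGS; some results beyond the cut were filed as inactive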
Target sequence (O15492 whole entry, looked up): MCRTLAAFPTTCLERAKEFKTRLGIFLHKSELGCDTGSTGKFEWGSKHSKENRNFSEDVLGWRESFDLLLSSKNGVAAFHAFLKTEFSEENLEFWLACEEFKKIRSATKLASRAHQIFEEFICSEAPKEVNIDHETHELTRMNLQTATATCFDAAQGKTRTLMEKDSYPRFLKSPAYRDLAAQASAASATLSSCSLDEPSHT
Target sequence (P09471 whole entry, looked up): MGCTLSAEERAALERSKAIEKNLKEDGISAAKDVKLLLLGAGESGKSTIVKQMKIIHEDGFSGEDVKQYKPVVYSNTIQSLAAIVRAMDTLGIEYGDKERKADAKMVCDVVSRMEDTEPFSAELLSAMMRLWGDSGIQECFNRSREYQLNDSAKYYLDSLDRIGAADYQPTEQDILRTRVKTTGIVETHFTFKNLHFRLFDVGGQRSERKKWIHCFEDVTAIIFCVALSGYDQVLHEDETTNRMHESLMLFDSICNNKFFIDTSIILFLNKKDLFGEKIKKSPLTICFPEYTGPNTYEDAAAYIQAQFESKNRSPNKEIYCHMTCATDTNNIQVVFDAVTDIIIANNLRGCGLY
INS promoter inh cell count = recorded beside INS promoter inh, whose call it bears; normalized cell count, %; measured here: cell count, toxicity; reference of the scale not given here;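 cells exposed to compound for 48 h; stained nuclei by imaging scaled within each plate; lower means fewer cells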
HSV replic up primary fold = recorded beside HSV replic up, whose call it bears; fold increase; compound at 10 µM; measured here: primary screen fold increase 10 uM; tested in PC3 cells;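 GFP signal in the first replicate; 1 = infected wells without compound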
An asterisk follows results filed as active; i = inactive; ? = inconclusive; nt = no result given.

SMILES | GALR2 ag | PKD1 kinase inh | INS promoter inh | INS promoter inh cell count | HSV replic up | HSV replic up primary fold | RGS16-Gao HTS
COc1ccc(-c2cc(C(F)(F)F)n3nc(C(=O)NCCCn4ccnc4)cc3n2)cc1 | 0.0 | -2 | 39 | 58 | i | 0.95 | 98
Cc1ccc(C)c(Nc2ncnc(N)c2[N+](=O)[O-])c1 | -1.3 | -19 | 18 | 135 | i | 0.82 | 100
CCS(=O)(=O)c1ccc(O)c(NC(=O)CCCC(=O)O)c1 | nt | nt | nt | nt | i | 0.93 | 94
C/C(=C\C(=O)c1ccc(C)o1)Nc1ccc(C(=O)O)cc1C | -2.9 | -4 | 63 | 98 | i | 0.91 | 100
Cc1ccc(S(=O)(=O)Cn2nnnc2CN(Cc2ccco2)CC2CCCO2)cc1 (centres undefined) | -1.1 | -8 | -74 | 56 | i | 0.99 | 106
O=C(C1=C[C@@H](c2ccc(C(F)(F)F)cc2)C[C@@H](OCCCCO)O1)N1CCN(Cc2ccccc2)CC1 | nt | 1 | nt | nt | i | 0.83 | 103
CCOc1cc(/C=C(\C#N)c2nc(-c3cccs3)c(NC(C)=O)s2)ccc1O | -0.2 | 0 | 6 | 108 | ? | nt | 99
COc1ccc(C2=NOC(CNC(=O)c3ccccc3Br)C2)c(OC)c1 (centres undefined) | nt | nt | nt | nt | i | 0.95 | 93
O=[N+]([O-])c1ccc(OCc2cccc(COc3ccc([N+](=O)[O-])cc3)n2)cc1 | 0.6 | 7 | -86 | 149 | i | 0.9 | 101
O=C(NC(=S)Nc1ccc(N2CCOCC2)c(Cl)c1)C(c1ccccc1)c1ccccc1 | -0.3 | -2 | 37 | 97 | i | 0.93 | 102

Sorted by molecular weight (low to high): part of the list above.
SMILES | GALR2 ag | PKD1 kinase inh | INS promoter inh | INS promoter inh cell count | HSV replic up | HSV replic up primary fold | RGS16-Gao HTS
C/C(=C\C(=O)c1ccc(C)o1)Nc1ccc(C(=O)O)cc1C | -2.9 | -4 | 63 | 98 | i | 0.91 | 100
CCS(=O)(=O)c1ccc(O)c(NC(=O)CCCC(=O)O)c1 | nt | nt | nt | nt | i | 0.93 | 94
CCOc1cc(/C=C(\C#N)c2nc(-c3cccs3)c(NC(C)=O)s2)ccc1O | -0.2 | 0 | 6 | 108 | ? | nt | 99
COc1ccc(C2=NOC(CNC(=O)c3ccccc3Br)C2)c(OC)c1 (centres undefined) | nt | nt | nt | nt | i | 0.95 | 93
O=C(NC(=S)Nc1ccc(N2CCOCC2)c(Cl)c1)C(c1ccccc1)c1ccccc1 | -0.3 | -2 | 37 | 97 | i | 0.93 | 102

(continued)
SMILES | GALR2 ag | PKD1 kinase inh | INS promoter inh | INS promoter inh cell count | HSV replic up | HSV replic up primary fold | RGS16-Gao HTS
CCCC1S/C(=N/N=C/c2ccc(OC)cc2)N(Cc2ccc(OC)cc2)C1=O (centres undefined) | -3.3 | -2 | -23 | 210 | i | 0.9 | 72
O=C(Nc1nnc(C2CC2)s1)c1ccncc1 | -0.6 | -1 | -53 | 59 | i | 1.1 | 103
Cc1noc(C)c1CSc1nnc2sc3ccccc3n12 | -0.4 | -9 | -24 | 86 | i | 0.9 | 107
Cc1nn2cc(-c3ccc(-c4ccccc4)cc3)nc2s1 | -1.8 | -4 | 27 | 57 | i | 0.9 | 81
S=C(NCc1ccccc1)Nc1ccc(Cl)cc1 | nt | 3 | nt | nt | i | 1 | 97
CCn1c(NC(=O)c2ccccc2F)c(-c2cccs2)c(=O)c2ccccc21 | nt | nt | nt | nt | i | 0.99 | 100
CC1=NN(Cc2ccccc2)C(=O)/C1=C\c1ccc(N(C)C)cc1 | -2.2 | -9 | nt | nt | i | 0.88 | 102
CNc1c([N+](=O)[O-])cnn1-c1ccc(C)cc1 | 0.3 | 1 | 47 | 47 | i | 0.93 | 103
O=C1CCCc2ccccc2N1Cc1c(Cl)cccc1Cl | -1.0 | 3 | -9 | 138 | i | 1.1 | 92
CCOc1cccc(NC(=O)CSc2nc(C)c3c(c2C#N)CCCC3)c1 | 0.1 | -4 | 11 | 91 | i | 0.94 | 108
CCOC(=O)C1CCCN(C2CC(=O)N(c3cccc(C)c3)C2=O)C1 (centres undefined) | -0.9 | -2 | nt | nt | i | 0.97 | 106
Nc1ccc2nc(SCc3cccc(F)c3)sc2c1 | nt | -5 | nt | nt | i | 0.84 | 107
O=C1C=C(c2ccccc2)C[C@H](c2cccs2)[C@H]1n1nnc([N+](=O)[O-])n1 | -3.5 | -1 | -187 | 25 | i | 0.68 | 98
CCOc1ccccc1Nc1nnc(Cc2ccccc2Cl)c(=O)[nH]1 | -0.4 | 2 | -36 | 173 | i | 1 | 111
CCC(=O)Nc1ccc(C(=O)CSc2nnc(-c3ccc(O)cc3)n2CC2CCCO2)cc1OC (centres undefined) | -1.2 | -9 | 34 | 133 | nt | nt | 98
Cc1cc[n+](CC(=O)c2ccc(NC(=O)c3ccccc3)cc2)c2ccccc12 | nt | 4 | -20 | 97 | i | 0.97 | 98
CC1CCc2nc(NC(=O)CSc3nc4ccccc4o3)sc2C1 (centres undefined) | -2.6 | -2 | -28 | 117 | i | 1 | 100
COc1cccc(/C=N/NC(=O)c2oc3nc(-c4ccccc4)cc(-c4ccco4)c3c2N)c1 | nt | nt | nt | nt | i | 0.81 | 96
Cc1c(Cl)cccc1NC(=S)N1CCN(C(=O)C2CCCO2)CC1 (centres undefined) | 0.0 | -4 | nt | nt | i | 0.94 | 101
CC(C)CN1C(=O)c2ccccc2C1(O)Cc1ccccc1 (centres undefined) | -1.1 | -8 | -66 | 81 | i | 0.97 | 100
CCCS(=O)(=O)NCCc1cc2cc(C)c(C)cc2[nH]c1=O | -1.0 | -4 | 57 | 85 | i | 0.89 | 71
Cc1[nH]c2c(Cl)cccc2c(=O)c1CN1CCCC1 | -1.5 | -9 | nt | nt | nt | nt | 102
Nn1c(SCc2nc3ccccn3c2Br)nnc1-c1cccnc1 | -4.8 | -5 | 3 | 156 | i | 0.98 | 105
COc1ccc(Br)cc1CN(C)C(C)C(=O)Nc1cc([N+](=O)[O-])ccc1OC (centres undefined) | -0.1 | -4 | 9 | 63 | i | 0.94 | 109
COc1ccccc1N(C)S(=O)(=O)c1ccc(C(=O)NC2=NCCS2)cc1 | -0.3 | -2 | -59 | 64 | i | 1.1 | 104
CC(C)(C)NC(=O)CSc1nc2ccc(NC(=O)CSc3nnc(N)s3)cc2s1 | -0.9 | 7 | -11 | 69 | i | 1 | 68
COc1ccc(NS(=O)(=O)c2cccs2)c(OC)c1 | -2.6 | 4 | -12 | 85 | i | 1 | 112
CC(C)(C)N(Cc1ccccc1)C(=O)c1ccc(Br)o1 | nt | -3 | nt | nt | i | 1 | 98
O=C(COc1ccc(Br)cc1Cl)NC(=S)N1CCc2ccccc21 | -0.9 | 0 | -7 | 134 | i | 0.95 | 98
COc1ccc(CCNC(=O)C2CC3Cn4c(nc5cc6ccccc6cc54)C3N2C)cc1 (centres undefined) | nt | nt | nt | nt | i | 0.88 | 99
Cc1ccc(C(=O)CSC2=C(C#N)C(c3ccco3)C3=C(CCCC3=O)N2)cc1 (centres undefined) | -0.4 | -10 | nt | nt | i | 0.71 | 102
CN1CCN(c2ccc(-c3ccnn3C(=O)Nc3cccc(C(F)(F)F)c3)cc2)CC1 | nt | 6 | 20 | 86 | i | 0.82 | 102
O=c1c2ccsc2ncn1Cc1ccc(Cl)cc1 | -1.9 | 8 | 7 | 105 | i | 0.92 | 44
O=C(CCc1nc(-c2ccccc2)no1)N1CCCC1 | -2.3 | -1 | -36 | 71 | i | 0.88 | 93
Cn1c(=O)n(C/C=C/c2ccccc2)c(=O)c2c1nc1n2CCCN1Cc1ccccc1 | 1.3 | 17 | nt | nt | i | 0.77 | 100
COc1ccccc1NC(=O)/C=C1\SCC(=O)N1C | nt | 6 | nt | nt | i | 1 | 102
NC(=O)CC[C@@H]1NC(=O)[C@@H]2CCCN2C(=O)c2cc([N+](=O)[O-])cc(I)c2NCCCC[C@@H](C(=O)NC(CC(=O)O)C(N)=O)NC1=O (some centres undefined) | -1.4 | -12 | -32 | 115 | i | 0.98 | 98
COc1cc(/C=N/NC(=O)c2cccnc2)ccc1OC(=O)c1ccco1 | -0.8 | 1 | 14 | 146 | i | 0.86 | 44
CC1(C)CC(=O)C2=C(C1)OC1=C(C(=O)CC(C)(C)C1)C2c1ccc(O)c([N+](=O)[O-])c1 | nt | -12 | 0 | 81 | i | 0.9 | 103
COc1ccc(C(=O)N2CCN(Cc3ccc4c(c3)OCO4)CC2)cc1[N+](=O)[O-] | nt | -2 | nt | nt | i | 0.87 | 106
Cc1ccc(-c2csc(-c3cc(C)on3)n2)cc1 | nt | nt | nt | nt | i | 0.96 | 96
CCn1c(SCc2nc3scc(-c4ccccc4)c3c(=O)[nH]2)nnc1-c1cccs1 | -0.2 | -5 | -3 | 80 | i | 1 | 98
CCCOc1ccc(/C(O)=C2/C(=O)C(=O)N(CCCn3ccnc3)C2c2cccs2)cc1 (centres undefined) | 4.1 | -14 | nt | nt | i | 1.1 | 129
Cc1ccc(NC(=O)COC(=O)Cc2csc(-c3cccc(F)c3)n2)cc1C | -0.2 | 8 | -20 | 72 | i | 0.96 | 112
CN(Cc1ccccc1)S(=O)(=O)c1cn(C)cn1 | nt | nt | nt | nt | i | 1.1 | 99
Clc1ccc(Nc2ccc(NCc3ccccc3)nn2)cc1 | 1.2 | -2 | 3 | 116 | i | 0.71 | 134
COc1ccc(CC(=O)NNC(=O)COc2ccc3ccccc3c2)cc1 | -0.3 | 10 | nt | nt | i | 1.1 | 68
O=C(c1cccs1)N1CCN=C1SCc1ccc(Cl)cc1 | nt | 2 | -25 | 153 | i | 0.9 | 104
CN(C(=O)COC(=O)/C=C/c1ccccc1[N+](=O)[O-])c1ccccc1 | nt | 4 | nt | nt | i | 0.8 | 94
CCn1[nH]c(=O)c(=Nc2c(C)n(C)n(-c3ccccc3)c2=O)cc1-c1ccc(Cl)cc1 | -1.4 | -9 | nt | nt | i | 1.1 | 102
(cont.)
SMILES | GALR2 ag | PKD1 kinase inh | INS promoter inh | INS promoter inh cell count | HSV replic up | HSV replic up primary fold | RGS16-Gao HTS
O=C1CCCN1CCCNCC(=O)N1c2ccccc2Sc2ccccc21 | -1.7 | 0 | -3 | 78 | i | 0.93 | 94
O=c1c2c3c(sc2ncn1/N=C/c1ccc(Br)o1)CCCC3 | -3.7 | -13 | nt | nt | i | 0.78 | 127
NC(=O)C1CCN(C(=O)c2ccc(NC3=NC4CS(=O)(=O)CC4S3)cc2)CC1 (centres undefined) | -3.4 | -6 | nt | nt | i | 0.92 | 104
O=C(NCc1ccccc1Cl)C1CCC(CNc2nc(=S)[nH]c3ccccc23)CC1 (centres undefined) | nt | -3 | -19 | 17 | i | 0.84 | 108
CCOC(=O)c1c(C)[nH]c(C(=O)OCC(=O)NC(C)(C)C)c1C | nt | -3 | -68 | 124 | i | 1.1 | 95
CCCCCc1c2c(cc(O)c1C(=O)O)OC(=O)c1c(cc(OC)cc1C(=O)CCCC)O2 | nt | 2 | nt | nt | i | 0.67 | 102
CC(=O)Oc1ccc2nc(-c3cccs3)oc(=O)c2c1 | -0.4 | 9 | 45 | 100 | i | 0.94 | 102
Cc1c(NC(=O)c2ccc(-c3cccc([N+](=O)[O-])c3)o2)c(=O)n(-c2ccccc2)n1C | nt | -10 | 14 | 105 | i | 1.1 | 105
COc1ccccc1CNC(=O)C1(c2ccc(Cl)cc2)CC1 | -0.9 | -5 | -15 | 56 | i | 1 | 77
Cn1c(C(=O)NC2CC2)cc(=O)n(C)c1=O | nt | -4 | nt | nt | i | 1.1 | 102
O=C(O)CCN1C(=O)NC2(CCCC2)C1=O | -1.8 | 0 | nt | nt | i | 1.1 | 101
OCCCNC(=S)Nc1ccc(Oc2ccccc2)cc1 | -2.3 | 0 | -10 | 92 | i | 1 | 106
COc1ccc(S(=O)(=O)N[C@@H](Cc2ccc(Cl)cc2)C(=O)N2CC[C@@]3(O)CCCC[C@H]3C2)cc1 | -0.8 | -3 | -8 | 90 | i | 1 | 124
Cc1ccc(C(=O)N(CC#N)CC#N)cc1C | nt | 2 | 50 | 82 | i | 1 | 103
CC(Cc1c[nH]c2ccccc12)NC(=O)C1CCCNC1=O (centres undefined) | -1.4 | -1 | 14 | 118 | i | 0.99 | 105
N/C(=N\NC(=O)c1cccs1)c1cc2ccccc2oc1=O | -1.8 | 4 | nt | nt | i | 1 | 156
Cc1cc(C)nc(SC2CCOC2=O)n1 (centres undefined) | -2.1 | -7 | 19 | 149 | i | 0.83 | 105
